StopGo RLuc – lowers the Renilla signal of an FMDV 2A StopGo reporter; HEK cells with a luciferase reporter of 2A StopGo recoding; Potency, µM (doses to about 57.5 µM), for the others: at the top dose signal change, negative = less light; hit rate 0.32% among 120,000; AID 1745857; active means well fitted falling curve with a large enough effect; inconclusive means small, poorly fitted or top-dose-only effect; inactive means no such curve, though single readings can be large or run the other way; also: nearly all actives have a fitted effect of over 55% in size; overnight with compound
2A firefly – FMDV 2A StopGo reporter, firefly signal. HEK cells with a luciferase reporter of 2A StopGo recoding. Potency, µM (titrated, usually from 57.5 µM), without a hit: top-dose signal change, negative = less light. hit rate 0.23% among 120,000. AID 1745856; active = well fitted falling curve with a large enough effect; inconclusive = small, poorly fitted or top-dose-only effect; inactive = no such curve, though single readings can be large or run the other way; also: nearly all actives have a fitted effect of over 60% in size; overnight with compound
Active calls of the source: *; u = inconclusive; & = joins results of further samples; [ ] = dose if it differs, or a comment. % is scaled to controls: 0 for no effect and ±100 for the full control effect; potency is read from the fitted curve at half-maximal effect.

Preview:
SMILES | StopGo RLuc | 2A firefly
COc1ccc(-c2ocnc2C(=O)NCc2cc(OC)ccc2OC)cc1 | 22.3% | 8.6%
CC(=O)c1ccc(NC(=O)c2cc3c([nH]c2=O)CC(c2ccccc2)CC3=O)cc1 (stereo not given) | 30.5%[activator] | 0.0%
CCn1cc(S(=O)(=O)c2ccc(Cl)cc2)c(=O)c2cc(F)c(N3CCOCC3)cc21 | 7.8% | 2.9%
CCCCOc1cccc(C(=O)Nc2cccc3ccc(C)nc23)c1 | 7.7%&-10.7% | 3.6%&-3.7%
O=C(CCc1cccs1)N(Cc1cccnc1)C1CC1 | 57.5%[activator] | -12.7%
CCOC(=O)c1ccc(NC(=O)C2CCCN(c3ccc(Sc4ccc(C)cc4)nn3)C2)cc1 (stereo not given) | -3.4% | 18.9%
O=C(CC1C(=O)N(c2ccccc2)C(=O)N1Cc1ccc(F)cc1)Nc1cccc(F)c1 (stereo not given) | 115.7%[activator] | -18.0%

Main list, from the first entry:
SMILES | StopGo RLuc | 2A firefly
COc1ccc(-c2ocnc2C(=O)NCc2cc(OC)ccc2OC)cc1 | 22.3% | 8.6%
CC(=O)c1ccc(NC(=O)c2cc3c([nH]c2=O)CC(c2ccccc2)CC3=O)cc1 (stereo not given) | 30.5%[activator] | 0.0%
CCn1cc(S(=O)(=O)c2ccc(Cl)cc2)c(=O)c2cc(F)c(N3CCOCC3)cc21 | 7.8% | 2.9%
CCCCOc1cccc(C(=O)Nc2cccc3ccc(C)nc23)c1 | 7.7%&-10.7% | 3.6%&-3.7%
O=C(CCc1cccs1)N(Cc1cccnc1)C1CC1 | 57.5%[activator] | -12.7%
CCOC(=O)c1ccc(NC(=O)C2CCCN(c3ccc(Sc4ccc(C)cc4)nn3)C2)cc1 (stereo not given) | -3.4% | 18.9%
O=C(CC1C(=O)N(c2ccccc2)C(=O)N1Cc1ccc(F)cc1)Nc1cccc(F)c1 (stereo not given) | 115.7%[activator] | -18.0%
COc1cc(/C=C/C(=O)c2ccc(Br)cc2)cc(OC)c1 | 26.1% | 0.0%
Cc1ccc(CNC(=O)Cn2cc(S(=O)(=O)Cc3ccccc3Cl)c3ccccc32)cc1 | -4.0% | -3.2%
Cc1cc(N2CCC(C(=O)NCCC(C)C)CC2)n2nc(C)c(-c3ccc(Cl)cc3)c2n1 | -14.2% | -14.2%
N#Cc1cccnc1NCCCNc1ncccc1C#N | 12.1% | 99.4%[activator]
Cc1ccccc1-c1nc(CNC(=O)Nc2ccc(Cl)cc2)c(C)o1 | 22.4% | 155.9%[activator]
N#Cc1ccc(OCCOc2ccc(C#N)cc2)cc1 | 2.1% | 0.2%
Cc1ccc(NC(=O)C2CCCN2S(=O)(=O)c2ccc3nc(-c4ccccc4)[nH]c3c2)cc1F (stereo not given) | u | u
CCOC(=O)c1[nH]cnc1C(=O)Nc1ccc(F)cc1 | 10.2% | 32.1%[activator]
COc1ccc(-c2c3c(=O)n(C)c(=O)n(C)c3c3n2-c2ccccc2NC3c2ccco2)cc1 (stereo not given) | 8.4% | 26.7%
CCOc1ccc(C(=O)CCC(=O)OCC(=O)c2ccc3c(c2)OCCO3)cc1 | 12.8% | 8.5%
CCOc1ccc(N(CC)C(=O)Cn2cnc3sc(C)c(S(=O)(=O)N4CCN(c5ncccn5)CC4)c3c2=O)cc1 | -5.1% | -1.2%
CC(C)(C)C(N)CN1CCCC1 (stereo not given) | 4.4% | 8.6%
CCOC(=O)CSc1nc2c(cc1C#N)CCCC2 | -9.2% | 126.1%[activator]
COc1ccc(OC)c(CNC(=O)C2CCN(c3nc4ccccc4nc3C(F)(F)F)CC2)c1 | -12.5% | -20.7%
CCN(CC)C(=O)c1oc2ccccc2c1NC(=O)c1c(F)cccc1F | 66.6%[activator] | -0.6%
Cn1nc(C(=O)OCc2ccccc2)c2ccccc2c1=O | 8.1% | 24.6%
CCN(CC(=O)NCc1ccc(F)cc1)C(=O)c1ccc2c(c1)nnn2CC | 28.3% | 13.3%
COc1cc(/C=C/C(=O)c2ccc(C#N)cc2)cc(Br)c1O | -4.5%[1.06 µM] | 21.8%
CCOC(=O)c1c(C)[nH]c(C)c1S(=O)(=O)NCC(=O)N1CCN(c2ccccc2OC)CC1 | 0.8% | -13.2%
O=S(=O)(NCC12CC3CC(CC(C3)C1)C2)c1cccs1 | 180.8%[activator] | 0.0%
COc1cccc(CNC(=O)c2ccc(CS(=O)c3ccccc3)o2)c1 (stereo not given) | -11.4% | -15.2%
Cc1ccc2oc(-c3cc(NC(=O)c4ccc5c(c4)OCCO5)cc(C)c3O)nc2c1 | -7.6% | -0.9%
Cc1ccc(Cl)cc1N1CCN(C(=O)CCn2c(=O)c3cccn3c3cccnc32)CC1 | 1.0% | -0.4%
CCc1noc(CN2CCC(NC(=O)c3cnn(C)c3)CC2)n1 | -10.2% | -0.4%
O=C(NCCN1CCN(C(=O)c2ccccc2)CC1)C(=O)Nc1ccccc1 | -0.9% | 47.7%[activator]
Cc1ccc(CNC(=O)c2cc(=O)c3cc(C)cc(C)c3o2)cc1 | -6.9%&-13.6% | -5.9%&-7.7%
NNC(=O)C(O)c1ccccc1 (stereo not given) | 35.0%[activator] | 18.3%
CCn1c2c(c(=O)n3ncc(C(=O)N4CCN(c5ccc(C(C)=O)cc5)CC4)c13)CN(Cc1ccc(OC)cc1)CC2 | 22.4µM* | u
CCNC(=O)NC(=O)CN(C)Cc1cc(C)c(OC)c(C)c1 | -0.7% | -7.7%
O=C(Nc1ccc(Br)cn1)c1cc(-c2ccccc2)on1 | -1.8% | 1.2%
COCCn1c(C)cc(O)c(C(c2ccccc2)N2CCN(c3ccc(F)cc3)CC2)c1=O (stereo not given) | 1.3% | -17.3%
O=C(Nc1nnc(C2CC2)s1)c1ccc(Cl)c(S(=O)(=O)N2CCc3ccccc32)c1 | u | -33.9%
O=c1[nH]c2ccc(NS(=O)(=O)c3ccc(F)cc3)cc2s1 | -15.1% | -1.0%
Cc1ccc(N2CC(c3nc4ccccc4n3CCN3CCOCC3)CC2=O)cc1C (stereo not given) | 2.5% | -1.6%
CCC(=O)Nc1ccc(-c2csc(NC(C)COC)n2)cc1 (stereo not given) | -16.4% | -6.4%
CCN(CC)S(=O)(=O)c1ccc2c(c1)N(CC(=O)NCCCN1CCN(c3cc(Cl)ccc3C)CC1)C(=O)CO2 | -13.0% | -5.1%
CSc1ccccc1C(=O)NCCC1=CCCCC1 | 29.2% | 0.0%
C/C(=N/Nc1ccc(S(N)(=O)=O)cc1[N+](=O)[O-])c1ccc(Cl)c(Cl)c1 | -13.9% | 0.6%
O=C(OCCOc1ccc(Cl)cc1)c1ccccc1C(=O)c1ccc(Cl)cc1 | 8.3% | 22.4%
Cc1ccc(C(C)C)c(OCC(O)CN2CCN(c3ccccc3F)CC2)c1 (stereo not given) | -0.7% | 0.0%
CCOc1ccccc1NC(=O)C1=C(C)Nc2ncnn2C1c1sccc1C (stereo not given) | 6.5% | 0.0%
Cc1ccc(S(=O)(=O)c2cn(C)c3cc(N4CCN(C)CC4)c(F)cc3c2=O)cc1 | -6.3% | -0.5%
Fc1ccc(-c2nc(CSc3ccc4c(c3)OCCO4)cs2)cc1 | 11.0% | 0.5%
Cc1nc(NC(=O)c2ccc3c(c2)OCCO3)ccc1Cl | 5.4% | 159.1%[activator]
CSc1nc2c(c(=O)[nH]c(=O)n2C)n1CCCc1ccccc1 | 6.0% | 20.1%
Cc1cn2c(=O)c(S(=O)(=O)NCc3ccccc3Cl)c(C)nc2s1 | 14.4% | -17.6%
CCCC(=O)Nc1ccc(-c2nc3ncccc3o2)cc1C | 32.7% | 103.1%[activator]
CC1(C)Cc2c(C#N)c(Nc3ccccc3)n3c(SCC(=O)O)nnc3c2CO1 | -12.5% | -4.0%
Cc1cc(C)c(NC(=O)CN(C)C(=O)C2CC(=O)N(Cc3ccccc3Cl)C2)c(C)c1 (stereo not given) | 3.9% | -12.6%
CCc1ccccc1NC(=O)c1nc2ccccc2nc1N1CCCCC1 | 2.5% | -3.9%
CCOc1ccc(NC(=O)CCS(=O)(=O)c2ccc3nc(C)sc3c2)cc1 | -9.5% | -10.6%
O=C(CCc1ccc(F)cc1)N1CCC(c2nc3ccccc3s2)CC1 | -11.3% | -6.9%
O=C(Nc1ccnc(Cl)c1)C1CC2CCC1C2 (stereo not given) | 2.4% | 7.4%
Remaining list, next part.
SMILES | StopGo RLuc | 2A firefly
COc1cc(NC(=O)C2(C#N)CCCC2)c(OC)cc1NC(=O)c1ccccc1 | 28.0% | 17.8%
CCOc1ccc(-c2cc(=O)c3cc(NC(=O)c4ccccc4OC)ccc3o2)cc1 | 0.0% | 87.6%[activator]
Cc1ccc(C(=O)/C=C/c2ccccc2C)o1 | 19.1% | 72.6%[activator]
Cc1ccc(S(=O)(=O)c2nnn3c2nc(N2CCCC(C)C2)c2cc(Cl)ccc23)cc1C (stereo not given) | -2.5% | -6.7%
CCC(C)[C@H](NC(=O)NCCc1ccc(F)cc1)C(=O)O (stereo not given in full) | -3.7% | 18.3%
O=C(CNc1cccc(F)c1)NCc1ccc(Cl)cc1 | 23.0% | 66.6%[activator]
CC(=O)N[C@@H](Cc1ccc(O)cc1)C(=O)O | -23.0% | u
COc1ccc(OS(=O)(=O)CCc2ccccc2)cc1 | 20.9% | 81.3%[activator]
NC(=O)C1CCN(CC(=O)Nc2cccc(Cl)c2)CC1 | -10.8% | -5.4%
CCC(=O)Nc1ccccc1-c1nc2ccccc2n(CC(=O)c2ccc(Br)cc2)c1=O | -3.4% | -19.7%
Cc1c(C(c2ccc(F)cc2)c2c(O)c3ccccc3oc2=O)c(=O)n(-c2ccccc2)n1C (stereo not given) | 222.1%[activator] | 6.8%
Cc1cc(SCC(=O)NC2CC2)nc2c(C)cccc12 | 9.0% | 19.8%
COC(=O)c1cccc(NC(=O)c2cnc(C)cn2)c1 | 0.3% | 82.3%[activator]
Cc1ccc(/C=C/C(=O)OCc2ccc(C#N)cc2)cc1 | 5.7% | 9.7%
Cc1ccc(NC(=O)CSc2nc3ccccc3c(=O)n2CCn2cc(Cl)cn2)cc1 | 5.9% | 19.4%
CCc1nn2c(=O)cc(COC(=O)c3ccc4c(c3)OCO4)nc2s1 | -12.6% | -14.6%
COc1ccccc1CN(C)CC(=O)N(C)c1c(N)n(Cc2ccccc2)c(=O)[nH]c1=O | 3.1% | 10.5%
CC(c1ccccc1Cl)n1cnc2c1c(=O)n(C)c(=O)n2C (stereo not given) | -2.3% | 0.1%
Cc1cnc(C(=O)Nc2ccc(NC(=O)c3cccc(S(C)(=O)=O)c3)c(Cl)c2)cn1 | -6.5% | -18.4%
CCCOC(=O)c1ccc(Oc2coc3cc(OC(=O)N(C)C)ccc3c2=O)cc1 | u | 38.1%[activator]
Cc1ccc(NC(=O)Cn2c(=O)ccc3cc(S(=O)(=O)N4CCC(C)CC4)ccc32)cc1C | -2.8% | -2.7%
Cc1ccc2ncn(Cc3coc(-c4cccs4)n3)c(=O)c2c1 | 11.0% | 8.1%
Cc1cccc(CN2CCN(Cc3cc(=O)oc4cc(C)ccc34)CC2)c1 | -2.9% | 2.0%
Cc1ccccc1NC(=O)CC(C)(C(=O)O)c1ccccc1 (stereo not given) | -9.3% | 8.8%
CC(Oc1cc2oc(=O)cc(-c3ccccc3)c2cc1Cl)C(=O)NCc1cccnc1 (stereo not given) | -0.9% | 7.8%
CCOC(=O)c1cccc(NC(=O)C(CC)n2cnc3ccccc3c2=O)c1 (stereo not given) | 57.1%[activator] | 3.8%
COc1ccccc1C(=O)Nc1ccc2oc(-c3cncc(Br)c3)nc2c1 | -10.7% | 31.8%[activator]
CCN(C(=O)Cn1c(=O)c2c(ncn2CC)n(Cc2ccccc2)c1=O)C1CCS(=O)(=O)C1 (stereo not given) | 0.3% | 1.1%
Cc1ccc(C)c(CN2C(=O)c3ccccc3S(=O)(=O)c3ccc(C(=O)Nc4ccccc4C(F)(F)F)cc32)c1 | 41.1%[activator] | 4.4%
N#Cc1c(N2CCN(C(=O)C(=O)N3CCCC3)CC2)nc(-c2ccco2)c2c1CCCC2 | -7.0% | -15.2%
COC(=O)[C@H](C(C)C)N(Cc1cn(Cc2ccc(C)cc2)nn1)S(=O)(=O)c1ccc(F)cc1Br | 35.4%[activator] | -22.4%
CC(c1ccccc1)N(C)C(=O)Cc1c[nH]c2ccccc12 (stereo not given) | 170.3%[activator] | 7.3%
CCn1nc(C(=O)O)c(=O)c2cc3c(cc21)OCO3 | -9.6% | -16.5%
CCN1CCN(C(=O)c2ccc3c(c2)N(Cc2c(F)cccc2Cl)C(=O)c2ccccc2S3)CC1 | -5.1% | -16.9%
CC(=O)c1c(C(C)=O)c(C)n(-c2ccc(I)cc2)c1C | -7.9% | -4.0%
O=C1/C(=C/c2ccsc2)Cc2ccccc21 | 27.4% | 102.9%[activator]
Cc1c(-c2cccc(Cl)c2)nc2ccccc2c1C(=O)NC1CCCCC1 | 25.6% | -7.3%
CNC(=O)c1c(NC(=O)c2ccc(S(=O)(=O)N3CCCCC3)cc2)sc2c1CCC2 | 58.8%[activator] | u
COc1ccc(N2CC(NC(=O)COc3ccc4ccccc4c3)CC2=O)cc1OC (stereo not given) | -8.0% | -5.7%
O=C(Cn1ncc2c3ccccc3n(Cc3ccccc3F)c2c1=O)N1CCCCCC1 | -2.5% | 7.7%
Cc1cccc(CSc2nnc3[nH]c(=O)cc(-c4ccccc4)n23)c1 | -1.3%&-11.3% | 1.7%&-25.6%
COCCN(CCOC)c1ncnc2c1c(-c1ccccc1)cn2-c1cccc(C(F)(F)F)c1 | 8.5% | 9.0%
O=C(/C=C/C=C/c1ccccc1)c1ccc2oc3ccccc3c2c1 | 11.5% | 0.0%
O=C(CCCn1c(=O)c2cccn2c2cccnc21)Nc1ccccc1Br | -5.8% | -11.7%
CCN(CC)CC1CCN(C(=O)/C=C/c2ccc(C#N)cc2)CC1 | -17.2% | -17.3%
Cc1ccc(NC(=O)Nc2c[nH]c(=O)[nH]c2=O)c(Cl)c1 | -12.7% | -5.6%

From PubChem

Hits appear at their usual frequency; any-hit rate near 0.53%.
